Source: PubChem (several laboratories)
rRNA inh HTS: selective bacterial rRNA inhibition in E. coli | E. coli WT GFP vs humanized-ribosome RFP mutants, fluorescence, 24 h; active compounds read low; DMSO median 0, no signal -100 | 1.6% of 350,000 active | GFP signal change (wild-type ribosome), % (test concentration not listed);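 active means significant combined selectivity score with lowered wild-type GFP, culture density cut under 30%, mutant RFP and density less affected; inactive means any of these conditions unmet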; further: one replicate is shown; some compounds called inactive have numbers as strong as hits
UCH37 inh: inhibitors of human deubiquitinating enzyme UCH37; Q9Y5K5; purified proteasome/UCH37, Ub-AMC cleavage fluorescence; inhibition, % (no concentration beside the values); 0.33% of 330,000 active;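 active means mean of two replicates above 20%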;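 further: 0% = compound-free wells with enzyme and 100% = wells lacking proteasome; stock transfer was 100 nL into about 20 µL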
Target sequence (Q9Y5K5 whole entry, looked up): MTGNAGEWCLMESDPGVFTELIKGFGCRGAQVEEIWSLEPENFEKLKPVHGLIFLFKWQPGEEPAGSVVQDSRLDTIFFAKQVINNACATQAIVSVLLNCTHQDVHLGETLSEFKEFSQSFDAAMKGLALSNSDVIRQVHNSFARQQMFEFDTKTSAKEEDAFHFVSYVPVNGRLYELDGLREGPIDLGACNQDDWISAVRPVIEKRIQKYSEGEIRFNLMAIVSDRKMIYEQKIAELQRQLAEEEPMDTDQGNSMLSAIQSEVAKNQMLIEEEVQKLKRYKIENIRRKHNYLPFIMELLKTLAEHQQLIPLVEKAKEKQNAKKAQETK
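Material: human UCH37 enzyme supplied as purified proteasome complex / Amount: 0.15 nM proteasome as dispensed / Buffer or medium: pH 7.4 Tris-HCl (50 mM) with ovalbumin, ATP-MgCl2, DTT / Times: preincubation 30 min, reaction 25 min, room temperature / Technique: AMC fluorescence from Ub-AMC cleavage, excitation 355 nm, emission 460 nm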
AF4-AF9 inh: MLL-AF4/AF9 protein interaction inhibition. P42568. inhibition, % at 10 µM. 0.47% of 350,000 active. AlphaScreen, biotin-AF4 peptide binding to FLAG-AF9. AID 651704;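 active means every replicate reaching a set inhibition limit, whatever the replicate mean, cut at about 25% in these data; inconclusive means mean inhibition reaches that limit but some replicates miss it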;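 further: 0% = plate neutral control median and 100% = total signal loss; the record names both 10 and 1 µM as test concentration; the first replicate is given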
Target sequence (P42568 whole entry, looked up): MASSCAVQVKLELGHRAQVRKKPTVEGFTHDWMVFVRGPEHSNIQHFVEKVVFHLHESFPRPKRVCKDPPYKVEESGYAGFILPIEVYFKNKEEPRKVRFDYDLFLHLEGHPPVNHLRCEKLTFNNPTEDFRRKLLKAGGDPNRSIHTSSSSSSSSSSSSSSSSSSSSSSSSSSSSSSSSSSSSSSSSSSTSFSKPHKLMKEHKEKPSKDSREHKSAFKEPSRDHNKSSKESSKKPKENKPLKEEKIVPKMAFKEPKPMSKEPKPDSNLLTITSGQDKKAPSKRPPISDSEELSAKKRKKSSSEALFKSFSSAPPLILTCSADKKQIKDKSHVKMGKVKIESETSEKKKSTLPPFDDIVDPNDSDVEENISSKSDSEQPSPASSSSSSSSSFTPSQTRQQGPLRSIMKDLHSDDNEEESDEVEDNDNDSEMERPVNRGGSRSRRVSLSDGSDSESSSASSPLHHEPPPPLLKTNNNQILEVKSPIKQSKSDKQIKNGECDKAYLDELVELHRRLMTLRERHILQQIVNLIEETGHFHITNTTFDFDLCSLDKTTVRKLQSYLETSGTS
Beta apoptosis: blocks beta cell apoptosis. INS-1E cytokine-induced death, ATP luminescence, 48 h; percent of positive-control rescue, neutral wells zero. protection from apoptosis, % (no concentration beside the values). 0.8% of 300,000 active. AID 435005;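 active means all replicates at 75% or more, or half of them and the mean; inconclusive means half reach 75% but not the mean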;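 further: 0% = cytokine-treated negative control wells and 100% = positive control rescue; higher means more ATP so stronger rescue from cytokine killing; wells of about 40 µL received 100 nL stock; the first replicate is given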
T cruzi inh: T. cruzi replication inhibition | T. cruzi beta-gal in NIH3T3, luminescence, 90 h | inhibition, % (test concentration not listed) | 1.4% of 300,000 active | AID 1885;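 active means mean inhibition across valid replicates above about 55%, limit read from the data; inconclusive means mean below that limit but half or more replicates reach it; inactive means mean below it, under half of replicates reach it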;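 further: signal also drops with host cell toxicity which is not excluded here; 0% = plate median of DMSO wells and 100% = zero luminescence signal; higher percent means less beta-gal luminescence so fewer parasites; stock transfer was 50 nL into about 50 µL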
A1 inh: inhibitors of the anti-apoptotic protein A1, read as caspase activation; AID 2462; MEF A1-2A-BIM cells, Caspase-Glo 3/7 luminescence, 3 h; percent of clofoctol response, vehicle zero; caspase activation, % (concentration not given with the values); 0.066% of 330,000 active;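 active means over half of replicate activation scores above 10%, or exactly half above 10 with the replicate mean above 10; inconclusive means replicate mean below 10 yet half the replicates above 10; inactive means over half of replicates below 10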;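 further: wells of about 30 µL received 50 nL stock; many hits fall short of the cut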
FGF22 binding: shifts melting point of recombinant human FGF22; calls only at 9.99 µM; AID 651658; Q9HCT0; 1.5% of 340,000 active; recombinant FGF22 thermal shift, SYPRO orange fluorescence; percent of sucrose octasulfate shift, DMSO zero;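 active means melting point raised past a set limit in the mean and every replicate; inconclusive means no clear call; three in four hits are not shown here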
Target sequence (Q9HCT0 whole entry, looked up): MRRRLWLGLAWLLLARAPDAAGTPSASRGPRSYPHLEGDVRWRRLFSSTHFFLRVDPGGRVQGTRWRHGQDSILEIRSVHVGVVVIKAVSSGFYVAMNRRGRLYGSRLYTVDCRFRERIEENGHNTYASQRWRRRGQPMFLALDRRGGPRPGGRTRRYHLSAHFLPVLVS
E coli growth: blocks Escherichia coli growth; 0.21% of 330,000 active; AID 1053175; OD600, 23 h; active compounds read low; OD600 absorbance (no concentration beside the values);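 active means OD600 absorbance below the run mean of sample wells minus 3.6 SD, in any replicate, cut at about 0.56 in these data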;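 further: stock transfer was 300 nL into about 60 µL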
rRNA inh HTS OD600: second read-out of rRNA inh HTS, no call of its own (marks repeat the call); OD600 change, %; measured here: OD600 growth;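 optical density of the mix in the first replicate; 0 = DMSO median and -100 = no signal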
rRNA inh HTS RFP: recorded beside rRNA inh HTS, whose call it bears; RFP signal change, %; measured here: RFP humanized mutant strains;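 first replicate; 0 = DMSO median and -100 = no signal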
* marks the source's active call; other numbers are inactive results; i = inactive; u = inconclusive; x = no result given; & = joins results of further samples. Only part of the results is shown; rates above refer to the full screens.

Start of the data: the first 5 compounds as a preview:
Molecule | rRNA inh HTS | rRNA inh HTS OD600 | rRNA inh HTS RFP | UCH37 inh | AF4-AF9 inh | Beta apoptosis | T cruzi inh | A1 inh | FGF22 binding | E coli growth
O=C(Nc1nnc(S(=O)(=O)N2CCCCCC2)s1)c1ccc(Br)cc1 | -10 | -3 | 2.5 | 3.2 | -0.8 | 5 | 5 | -0.5 | i | 0.74
Cc1oc(-c2ccccc2)nc1CC(=O)O | x | x | x | -0.2 | x | -2 | -4 | 1.3 | x | 0.74
COc1ccc(/C=C2/SC(=S)N(CCC(=O)O)C2=O)cc1 | x | x | x | 9.1 | x | 0 | -49 | -4.3 | x | 0.64
CCOC(=O)N1CCN(C(=O)COC(=O)c2ccc(N(C)C)cc2)CC1 | x | x | x | 7.2 | -1.1 | -3 | x | 1.6 | i | 0.7
CCOc1ccc(-c2c(=O)n(OCc3ccc([N+](=O)[O-])cc3)c3ccccc3[n+]2[O-])c(OCC)c1 | 11 | 9 | -3.4 | 0.7 | -1.8 | -1 | -5 | 0.2 | x | 0.66

The list itself, previewed entries included:
Molecule | rRNA inh HTS | rRNA inh HTS OD600 | rRNA inh HTS RFP | UCH37 inh | AF4-AF9 inh | Beta apoptosis | T cruzi inh | A1 inh | FGF22 binding | E coli growth
O=C(Nc1nnc(S(=O)(=O)N2CCCCCC2)s1)c1ccc(Br)cc1 | -10 | -3 | 2.5 | 3.2 | -0.8 | 5 | 5 | -0.5 | i | 0.74
Cc1oc(-c2ccccc2)nc1CC(=O)O | x | x | x | -0.2 | x | -2 | -4 | 1.3 | x | 0.74
COc1ccc(/C=C2/SC(=S)N(CCC(=O)O)C2=O)cc1 | x | x | x | 9.1 | x | 0 | -49 | -4.3 | x | 0.64
CCOC(=O)N1CCN(C(=O)COC(=O)c2ccc(N(C)C)cc2)CC1 | x | x | x | 7.2 | -1.1 | -3 | x | 1.6 | i | 0.7
CCOc1ccc(-c2c(=O)n(OCc3ccc([N+](=O)[O-])cc3)c3ccccc3[n+]2[O-])c(OCC)c1 | 11 | 9 | -3.4 | 0.7 | -1.8 | -1 | -5 | 0.2 | x | 0.66
O=C(NCc1ccccn1)C1CC(c2ccccc2O)=NO1 (centres undefined) | 17 | 7 | -3.1 | 3.6 | -0.4 | -2 | -26 | -0.7 | x | 0.69
CC(=O)c1ccc(OCc2cc(C(=O)N(C)CCOc3ccc(C)cc3)no2)cc1 | -15 | -20 | -2.7 | 0.9 | 0.5 | -2 | 15 | -3.2 | i | 0.69
CN(c1ccccc1)c1ccc(/C=C(\C#N)c2nnc3n2CCCCC3)cc1[N+](=O)[O-] | x | x | x | 7.3 | x | 4 | -11 | 0.8 | x | 0.72
CNc1ccccc1C(=O)OC | x | x | x | -37 | -0.8 | -5 | -13 | 0.7 | i | 0.74
O=C(O)c1nsc(Cl)c1Cl | x | x | x | 0.7 | x | -4 | -3 | 0.4 | x | 0.76
CCOC(=O)C(NC(=O)Nc1ccccc1)(OCC)C(F)(F)F (centres undefined) | x | x | x | 3.5 | x | x | -8 | -0.4 | x | 0.79
CCNC(=O)CSc1nc(-c2ccc(F)cc2)cs1 | -2 | -7 | 0.4 | 2.7 | -0.4 | 6 | -3 | -1.5 | i | 0.63
COC(=O)CC1Nc2ccccc2SC1=O (centres undefined) | x | x | x | 4.2 | x | -11 | -9 | -0.3 | x | 0.71
COc1ccccc1C(=O)NCCC(=O)N1CCN(c2cccc(C(F)(F)F)c2)CC1 | -17 | -20 | -1.8 | 6.1 | -9.9 | -11 | -5 | 0.1 | i | 0.64
CCN(CC)S(=O)(=O)c1ccc(C(=O)OC2CCCCC2CN(C)C)cc1 (centres undefined) | x | x | x | 2.6 | x | 0 | 16 | 0.8 | x | 0.63
Nc1ncc(-c2ccccc2)n1CC1CCCO1 (centres undefined) | x | x | x | 0.0 | x | 20 | 22 | -0.3 | x | 0.62
CCC(Oc1ccccc1)C(=O)N(CC)CC(=O)NCc1ccc(F)cc1 (centres undefined) | 2 | 6 | 2.5 | 4.0 | -3.2 | x | x | x | i | 0.67
NS(=O)(=O)c1ccc(NS(=O)(=O)c2ccc(NC(=S)Nc3ccccc3)cc2)cc1 | -3 | -4 | -1.6 | 3.7 | -5.7 | 0 | -6 | 1.9 | i | 0.69
CCOc1ccc(C(=O)O[C@H]2[C@H](Cc3ccccc3)NS(=O)(=O)[C@H]3C[C@@H]4C=C[C@]23O4)cc1 | 10 | 10 | -1.9 | -0.4 | 2.7 | -4 | x | -1.0 | i | 0.81
Cc1cccc(C)c1NC(=O)COC(=O)CNC(=O)C1CCCCC1 | 5 | 2 | 1.4 | 1.4 | -4.7 | x | x | x | i | 0.69

Molecule | rRNA inh HTS | rRNA inh HTS OD600 | rRNA inh HTS RFP | UCH37 inh | AF4-AF9 inh | Beta apoptosis | T cruzi inh | A1 inh | FGF22 binding | E coli growth
CCc1cc(C(=O)N/N=C/c2ccc(OC)cc2)c2ccccc2n1 | 3 | 1 | -0.3 | x | -5.6 | -2 | 0 | 0.1 | i | x
O=C(CC1C(=O)NCCN1Cc1c(F)cccc1Cl)NCc1ccccc1 (centres undefined) | -5 | -16 | -4.2 | -0.8 | -4.0 | -1 | 14 | 0.8 | x | 0.68
CCN(CC)CCC(c1cc(OC)c(OC)c(OC)c1)c1c(OC)cc(OC)c2ccc(=O)oc12 (centres undefined) | 14 | 7 | 1.1 | 4.7 | 6.0 | -11 | 20 | 0.1 | i | 0.66
C[C@H](CO)N1C[C@H](C)[C@@H](CN(C)C)Oc2c(NC(=O)Cc3ccccc3)cccc2C1=O | 4 | 0 | 3.0 | 0.9 | 0.1 | x | x | x | i | 0.71
O=C(Cc1cccc(NC(=O)C2CCN(C(=O)C3CCCC3)CC2)c1)Nc1cccc(C(=O)N2CCCC2)c1 | -21* | 0.9* | 1.1* | 2.9 | -5.9 | 0 | x | -2.0 | i | 0.76
Cn1cc[n+](C)c1COc1ccc(C=O)cc1 | 6 | 11 | -0.8 | 5.7 | -4.0 | -2 | -15 | -0.1 | i | 0.68
Clc1ccc(-c2noc(CSc3nnc(-c4ccncc4)n3-c3ccccc3)n2)cc1 | x | x | x | 0.1 | x | -2 | 28 | 0.5 | x | 0.74
Cc1nc2nc(C)c(CCC(=O)NCCCN3CCN(c4cccc(Cl)c4)CC3)c(C)n2n1 | 9 | 6 | 2.3 | 3.4&8.3 | 2.0 | 5 | -2&15 | 1.0&-0.2 | i | 0.63&0.69
COc1ccc(NC(=O)CN(C)C(=O)c2ccccc2OC)cc1 | 4 | 7 | -1.0 | 2.0 | 0.5 | -2 | -9 | 0.5 | i | 0.69
COc1ccc2c(c1OC)C(=O)OC2c1c(O)nc(SC)n(-c2ccccc2)c1=O (centres undefined) | x | x | x | 4.4 | x | -6 | -8 | -0.4 | x | 0.63
Oc1ccc(C2=Nn3c(nnc3-c3ccco3)SC2)cc1O | x | x | x | 2.3 | x | -2 | -24 | -0.1 | x | 0.78
Cc1ccc(N2CCN(S(=O)(=O)c3ccc4c(c3)n(C)c(=O)c(=O)n4C)CC2C)cc1 (centres undefined) | x | x | x | -6.4 | x | -11 | -6 | 0.5 | x | 0.69
Cc1ccc(NC(=O)CSc2nnc(C)n2CC2CCCO2)cc1 (centres undefined) | 12 | 11 | -3.0 | 0.8 | -2.2 | -7 | -10 | -0.2 | i | 0.68
Cc1ccc2c(CN3CCN(S(=O)(=O)c4ccccc4C(F)(F)F)CC3)cc(=O)oc2c1 | -8 | -20 | 4.9 | 0.0 | 1.4 | 50 | x | -1.8 | i | 0.68
CCOCCCNC(=O)C1CCCN(S(=O)(=O)c2ccc(-n3cnnn3)cc2)C1 (centres undefined) | 14 | 21 | 0.2 | 0.0 | -0.9 | -4 | -2 | 0.3 | i | 0.68
Cc1ccc(C)c(NC2=C(Cl)C(=O)OC2OC(C)C)c1 (centres undefined) | -14 | -11 | -2.8 | 1.1 | -1.1 | -3 | 0 | -0.2 | i | 0.66
O=C(NN=C1CCCCCCC1)c1ccccn1 | x | x | x | 1.9 | x | -5 | 13 | -0.2 | x | 0.7
Cc1[nH]c2ccc(OC(F)(F)F)cc2c1CCN1C(=O)c2ccc(C(=O)O)cc2C1=O | -45 | -54 | -14 | 1.6 | 0.0 | 1 | -7 | 0.6 | i | 0.7
CCOC(=O)c1ccc2c(c1)C1C=CCC1C(C(=O)OCC)N2 (centres undefined) | 6 | 14 | 6.7 | x | 7.1 | -9 | -4 | -0.9 | i | x
COCCn1c(-c2ccc(OC)c(OC)c2)nc2ccccc21 | x | x | x | 0.9 | x | x | 8 | 0.4 | x | 0.76

The last 3 compounds of the section before are carried over, then new ones follow.
Molecule | rRNA inh HTS | rRNA inh HTS OD600 | rRNA inh HTS RFP | UCH37 inh | AF4-AF9 inh | Beta apoptosis | T cruzi inh | A1 inh | FGF22 binding | E coli growth
Cc1[nH]c2ccc(OC(F)(F)F)cc2c1CCN1C(=O)c2ccc(C(=O)O)cc2C1=O | -45 | -54 | -14 | 1.6 | 0.0 | 1 | -7 | 0.6 | i | 0.7
CCOC(=O)c1ccc2c(c1)C1C=CCC1C(C(=O)OCC)N2 (centres undefined) | 6 | 14 | 6.7 | x | 7.1 | -9 | -4 | -0.9 | i | x
COCCn1c(-c2ccc(OC)c(OC)c2)nc2ccccc21 | x | x | x | 0.9 | x | x | 8 | 0.4 | x | 0.76
CC(C)c1nnc(NC(=O)c2cnccn2)s1 | x | x | x | 3.4 | x | -2 | -1 | 0.4 | x | 0.65
Cc1cc(C(=O)N/N=C/c2ccccn2)c2ccccc2n1 | 7 | 8 | -0.7 | x | 3.3 | -7 | -4 | -0.3 | i | x
O=C(O)/C(=C\c1ccc(Cl)cc1)c1ccc(F)cc1 | -34 | -48 | -5.4 | -0.3 | 1.6 | -4 | -8 | 0.6 | i | 0.68
COc1ccccc1N1CCN(/N=C/c2cc([N+](=O)[O-])ccc2Cl)CC1 | 12 | -7 | -2.1 | x | u | 8 | 10 | 0.3 | i | x

Shown with two lines to a compound: entries from further up.
Second line of a record: rRNA inh HTS	rRNA inh HTS OD600	rRNA inh HTS RFP	UCH37 inh	AF4-AF9 inh	Beta apoptosis	T cruzi inh	A1 inh	FGF22 binding	E coli growth
Cc1cc(C(=O)N/N=C/c2ccccn2)c2ccccc2n1
    7	8	-0.7	x	3.3	-7	-4	-0.3	i	x
O=C(O)/C(=C\c1ccc(Cl)cc1)c1ccc(F)cc1
    -34	-48	-5.4	-0.3	1.6	-4	-8	0.6	i	0.68
